# A488 fluor = compound fluoresces in the A488 spectral region | max dye equivalency, M | compound autofluorescence, A488 spectral region, dye equivalency; hits give high values | hit rate 0.1% among 59,000 | AID 591; active = above 10 nM dye equivalent; inconclusive = 1 to 10 nM; inactive = 1 nM or less; about half of its hits are not listed in these tables;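 note: highest value over a series up to 38 µM; compound alone in buffer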
#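 Compound autofluorescence was read in 100 mM Tris pH 8.0 after 15 min at room temperature, ex 480 nm/em 540 nm. Intensities were converted to A488 dye-equivalent concentration using an on-plate six-point A488 standard curve.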
# Resorufin autofl = compounds fluorescent in resorufin spectral region. Compound fluorescence, resorufin region 547/598 nm, buffer; hits give high values. AID 588. max dye-equivalent concentration, M. hit rate 0.04% among 59,000; active = above 10 nM dye equivalent; inconclusive = 1 to 10 nM; inactive = 1 nM or less; a few of its hits are not listed in these tables; note: highest value over a series up to 38 µM
#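 Tris 100 mM pH 8.0; compound added, 15 min RT; CCD imager read, ex 547 nm/em 598 nm; signal normalized to resorufin standard curve (six concentrations per plate) as dye-equivalent concentration.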
# AID923 = qHTS Assay for Allosteric/Competitive Inhibitors of Caspase-1: Spectroscopic Profiling in AFC Spectral Region; compound fluorescence, AFC spectral region (405/520 nm); almost no hit is shown here; Potency, µM (series often up to 57.5 µM), for inactives: top-dose fluorescence increase, usual class: activators; hit rate 1.1% among 75,000; active = well fitted activation curve with a large enough effect; inconclusive = small, poorly fitted or top-dose-only effect;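 note: potency is the fitted concentration of half-maximal effect; 0% is about no effect; scaled to a free AFC standard on each plate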
#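 Compound autofluorescence profiled at 405 nm ex/520 nm em during kinetic caspase 1 run (50 nM enzyme, 5 uM Ac-WEHD-AFC, HEPES pH 7.5, 10 mM DTT). Titration up to 57 uM; baseline from regression intercept, normalized to AFC standard curve.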
# A647 autofl = compound fluoresces in the A647 spectral region | Compound fluorescence, A647 channel (570/671 nm), Tris buffer | max dye-equivalent concentration, M | 59,000 tested, under 10 active; active means above 1 µM dye equivalent; inconclusive means 0.1 to 1 µM; inactive means 0.1 µM or less;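 note: values scaled relative to a standard on each plate; highest value over a series up to 38 µM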
#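 Compounds pinned into 100 mM Tris pH 8.0, 15 min at room temperature, then read with 570 nm excitation/671 nm emission filters. Fluorescence normalized to an on-plate six-point Alexa 647 standard curve, giving dye-equivalent concentration per compound concentration.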
# TSHR ag = activates the human thyroid stimulating hormone receptor; P16473; HEK293-CNG-TSHR cells (CNG channel as cAMP sensor), membrane potential dye, cAMP; Potency, µM (doses to about 57.1 µM), for the others: at the top dose activation, most hits filed as activators; hit rate 0.48% among 73,000; active = well fitted activation curve of enough size with the parental cells flat; inconclusive = any curve in the parental cells; inactive = parental cells flat and receptor cells flat or falling; note: potency is the fitted concentration of half-maximal effect; % of control where 0% means no effect; weak receptor curves with flat parental cells got no call and are not listed
# Target sequence (P16473 whole entry, looked up): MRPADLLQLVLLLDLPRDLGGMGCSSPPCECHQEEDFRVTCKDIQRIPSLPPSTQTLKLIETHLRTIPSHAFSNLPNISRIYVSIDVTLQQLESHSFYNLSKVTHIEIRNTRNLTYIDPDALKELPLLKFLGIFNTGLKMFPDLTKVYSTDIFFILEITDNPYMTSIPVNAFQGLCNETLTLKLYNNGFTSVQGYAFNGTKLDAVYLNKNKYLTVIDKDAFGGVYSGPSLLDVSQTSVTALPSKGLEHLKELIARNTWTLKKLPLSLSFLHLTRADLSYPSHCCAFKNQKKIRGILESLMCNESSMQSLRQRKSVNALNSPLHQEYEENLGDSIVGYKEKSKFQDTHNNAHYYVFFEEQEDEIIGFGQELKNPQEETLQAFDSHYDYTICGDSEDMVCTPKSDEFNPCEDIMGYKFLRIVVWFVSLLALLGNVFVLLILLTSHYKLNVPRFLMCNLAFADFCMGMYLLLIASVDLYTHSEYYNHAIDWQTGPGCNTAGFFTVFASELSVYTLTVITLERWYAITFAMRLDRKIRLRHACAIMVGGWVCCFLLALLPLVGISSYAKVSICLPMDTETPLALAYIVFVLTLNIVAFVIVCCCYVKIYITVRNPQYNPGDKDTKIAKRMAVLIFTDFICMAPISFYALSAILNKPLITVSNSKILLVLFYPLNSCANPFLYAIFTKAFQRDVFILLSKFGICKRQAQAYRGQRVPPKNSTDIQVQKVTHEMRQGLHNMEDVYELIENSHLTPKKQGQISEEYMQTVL
#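 cAMP rise detected as CNG-channel membrane depolarization by fluorescent dye (emission 590 nm), 30 min after compound, following 60 min dye loading containing 100 uM RO 20-1724 at room temperature. Cells: TSHR/CNG HEK 293, with parental CNG HEK 293 as control.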
# Active calls of the source: *; i = inactive; ? = inconclusive; nt = no result given; [ ] = dose if it differs, or a comment. An excerpt; the hit share may differ from the screen's.
mol,A488 fluor,Resorufin autofl,AID923,A647 autofl,TSHR ag
O=C(c1cccc(-n2cnnn2)c1)N1CCOCC1,i,i,-1.0%,1.3e-08,-2%
CCCCCC(=O)Nc1ccc(N2CCN(CC)CC2)c(Cl)c1,i,i,-3.6%,1e-09,-3%
COc1cccc(C(=O)N(CN2CCCC2=O)c2ccccc2OC)c1,i,i,-0.6%,3.4e-08,-5%[11.4 µM]
CC(=O)NCCSC(=O)c1ccc(F)cc1,nt,nt,4.6%,nt,?
CCCC(CCC)C(=O)Nc1ccncc1,i,i,1.1%,1e-09,8%
O=c1cnc2cnc(N3CCOCC3)nc2n1CCc1ccccc1,i,i,3.2%,1e-09,5%
COc1ccc(CNC(=O)C(C#N)c2nc3ccccc3nc2N2CCN(C)CC2)cc1 (centres undefined),i,i,3.8%,1.5e-09,-51%[inhibitor]
O=C1NC2(Nc3ccccc31)C(=O)Nc1ccccc12 (centres undefined),nt,nt,7.5%,nt,25%
O=C(COc1ccccc1)N1CCNC1=O,i,i,-2.7%,9.1e-09,-7%
CCC(=O)Nc1nc2ccccc2n1CCN1CCOCC1,nt,nt,1.0%,nt,-9%
CC(=O)c1ncnn1CC(=O)c1ccc(Cl)cc1Cl,i,i,-0.9%,1e-09,15%
O=C(NCC(c1cccnc1)N1CCN(c2ccc(F)cc2)CC1)c1cccc(Cl)c1 (centres undefined),i,i,2.3%,1e-09,18%
O/N=C1\CCCc2oc3c(c21)CCCC3,nt,nt,1.0%,nt,7%
CCN(CC)C(=O)CSc1nc(C)cc(-c2cccs2)c1C#N,nt,nt,2.7%,nt,?
CC#N,nt,nt,0.0%,nt,2%
CCOC(=O)c1ccc(NC(=O)N2CCN(c3ccccn3)CC2)cc1,i,i,-0.9%,2e-08,16%
CCOC(=O)C1CCN(C(=O)CN(c2ccc(Cl)c(C(F)(F)F)c2)S(C)(=O)=O)CC1,nt,nt,-1.9%,nt,?
CC(=O)c1cccc(NC(=O)N2CCCc3ccccc32)c1,i,i,-2.0%,1e-09,1%
CCC(=O)N1CCN(c2ccccc2NC(=O)c2cccc(C)c2)CC1,i,i,-1.3%,2.8e-08,?
Cc1ccc(S(=O)(=O)N2CCN(C(=O)c3ccc(OCc4c(C)noc4C)cc3)CC2)cc1,i,i,-0.9%,4.2e-09,7%
O=C(NCCc1ccccc1)c1ccccc1NS(=O)(=O)N1CCCC1,i,i,0.7%,1e-09,25%
COc1cccc(-c2nccc(NCc3cccs3)n2)c1,i,i,0.6%,1.7e-08,?
c1ccc(OCCN2C3=NCCN3c3ccccc32)cc1,i,i,1.7%,1.7e-09,16%
Cc1ccc2c(c1)NC(=O)C(CC(=O)N(C)Cc1ccccc1)O2 (centres undefined),nt,nt,0.9%,nt,18%
CCCC[C@@H]1C[C@H]1[C@@H](NP(=O)(c1ccccc1)c1ccccc1)c1ccccc1OC,nt,nt,2.5%,nt,?
CCOC(=O)c1cc(CC)sc1N,i,i,-1.8%,1e-09,-3%
COc1ccc(NC(=O)N2CCCC2C(=O)Nc2ccc(C)c(Cl)c2)cc1 (centres undefined),i,i,0.6%,4e-08,?
Cc1cc(C)nc(N2CCC(C(=O)Nc3ccc4c(c3)CCC4)CC2)n1,i,i,2.0%,1e-09,-6%
c1ccc2c(c1)c1cccc3ccc4cccc2c4c31,nt,nt,5.9%,nt,1%
C[C@@H](C(=O)Nc1ccc2ccccc2c1)[C@@H]1C[C@@]1(C)[C@@H](NC(=O)OCc1ccccc1)c1ccccc1,nt,nt,3.2%,nt,7%

# Three compounds drawn at random from those above, as already listed:
mol,A488 fluor,Resorufin autofl,AID923,A647 autofl,TSHR ag
CCOC(=O)c1cc(CC)sc1N,i,i,-1.8%,1e-09,-3%
C[C@@H](C(=O)Nc1ccc2ccccc2c1)[C@@H]1C[C@@]1(C)[C@@H](NC(=O)OCc1ccccc1)c1ccccc1,nt,nt,3.2%,nt,7%
CCC(=O)N1CCN(c2ccccc2NC(=O)c2cccc(C)c2)CC1,i,i,-1.3%,2.8e-08,?

# Additional records follow:
mol,A488 fluor,Resorufin autofl,AID923,A647 autofl,TSHR ag
Cc1cc(OCC(=O)NCCCN2CCOCC2)cc(C)c1Cl,i,i,0.5%,1.6e-09,15%
C=C1C(CCl)(CCl)C2(Cl)C(Cl)C(Cl)C1(Cl)C2(Cl)Cl (centres undefined),nt,nt,0.3%,nt,40µM*
O=C(NCCN1CCOCC1)c1cc2ccccc2o1,i,i,0.2%,3e-08,-2%
O=C(NCc1ccccc1)c1cccnc1N1CCOCC1,i,i,-2.4%,1e-09,2%
COc1ccc(N(CC(=O)Nc2ccc3c(c2)OCCO3)S(C)(=O)=O)c(OC)c1,i,i,0.5%,1e-09,0%[11.4 µM]
O=C(NCc1cccs1)c1noc2c1CCCC2,i,i,1.4%,7.4e-09,?
CC(C(=O)NC1CCCC1)N(Cc1ccc2c(c1)OCO2)C(=O)c1snc(C(N)=O)c1N (centres undefined),i,i,1.6%,5.3e-08,nt
COCc1c(C(=O)OCc2nc(N)nc(Nc3ccccc3C)n2)oc2ccccc12,i,i,0.8%,1.9e-08,1%
C=CCSc1nnc(-c2ccc(Cl)cc2Cl)o1,nt,nt,-0.7%,nt,22%[11.4 µM]
CO[C@H]1COC(=O)C/C=C\[C@H](C)COC(=O)[C@@H](C)NC(=O)C/C=C\[C@@H]1C,nt,nt,5.5%[11.5 µM],nt,-2%[11.4 µM]
O=C(COc1ccccc1F)NC1CC1,i,i,-2.2%,2.4e-08,5%
CC(=O)OC[C@@H]1O[C@H](C/C=N\OC[C@@H](O)[C@H]2O[C@H]3OC(C)(C)O[C@H]3[C@@H]2O)C=C[C@@H]1OC(C)=O,nt,nt,-1.1%[11.5 µM],nt,13%[11.4 µM]
CCCCN(CCCC)C(=O)CN(C)S(=O)(=O)c1ccc2c(c1)n(C)c(=O)c(=O)n2C,i,i,1.7%,6.8e-09,-4%
O=C(O)CSc1nnc(Cn2c(=O)sc3ccccc32)n1-c1cccc(Cl)c1,i,i,-1.2%,3.8e-09,2%
COc1ccc(CNc2ncnc3ccc(-c4ccccc4CN(C)C)cc23)c(OC)c1,i,i,0.7%,2.2e-09,?
Cn1cnc2cc(OC(=O)c3ccccc3)ccc21,i,i,-1.4%,3e-08,-16%
Cc1cc(O)c(-c2cc(O)c(C)cc2O)cc1O,i,i,-0.1%[11.5 µM],5.3e-09,-3%[11.4 µM]
COc1ccc(CCN(Cc2cc3cc4c(cc3[nH]c2=O)OCO4)C(C)=O)cc1OC,i,i,-0.9%,5.3e-08,19%
O=C(CSc1nnc(-c2ccoc2)o1)N1CCOCC1,i,i,0.7%,1e-09,1%
CCOC(=O)c1cnn(-c2ccccc2)c1NC(=O)c1ccccc1,nt,nt,-0.4%,nt,23%
O=C(CNC(=O)c1ccccc1C(=O)O)c1ccccc1,nt,nt,2.4%,nt,-5%[11.4 µM]
Cc1ccc(CCNC(=O)C2CCC(=O)N2Cc2cccnc2)cc1 (centres undefined),i,i,-0.6%,2.8e-08,-2%[11.4 µM]
CCCCCCC(=O)Cc1cc(OC)c(OC)cc1/C=C(/C(C)=O)C(=O)OC,nt,nt,0.7%[11.5 µM],nt,2%[11.4 µM]
COc1ccc(/C(O)=C2/C(=O)C(=O)N(CCCN(C)C)C2c2ccccc2)cc1OC (centres undefined),i,i,nt,1e-09,nt
Cc1onc(-c2ccccc2)c1C(=O)n1cccn1,i,i,1.1%,2.7e-08,5%
O=C(Cn1cnc2c(nnn2Cc2ccc(F)cc2)c1=O)N1CCCCC1,i,i,1.7%,2.1e-09,-2%
O=C(CCCn1c(=S)[nH]c2cc3c(cc2c1=O)OCO3)N1CCN(c2ccccc2F)CC1,i,i,1.1%,1e-09,21%
O=C1c2oc3ccc(F)cc3c(=O)c2C(c2ccccc2)N1CC1CCCO1 (centres undefined),i,i,0.3%,7.2e-09,12%
COc1cc(OC)c(C2C3=C(CCCC3=O)Nc3nc4ccccc4n32)cc1OC (centres undefined),i,i,0.5%,5.2e-09,16%
COc1cccc(-c2cc(C(F)(F)F)n3ncc(C(=O)O)c3n2)c1,i,i,5.8%,1e-09,2%
CCc1cc(C)cc(OCCNC(=O)c2ncn[nH]2)c1,i,i,-0.3%,1.3e-08,4%
N#Cc1cc2ccccc2nc1SCC(=O)Nc1ccc(S(=O)(=O)N2CCCC2)cc1,i,i,1.0%,1.9e-09,?
COc1ccccc1CCn1c(=O)c(-c2ccc(Cl)cc2)nc2cncnc21,i,i,6.4%,1e-09,?
CCOC(=O)c1sc2ncn(C(C)C(=O)OCC)c(=O)c2c1C (centres undefined),i,i,-0.8%,1.5e-08,8%
CCn1c(CC(=O)Nc2cccc(OC)c2)nnc1SCC(=O)Nc1nccs1,i,i,-0.2%,4.2e-08,-8%
Brc1cc2c(cc1Cn1c(-c3cncs3)nc3ccccc31)OCO2,i,i,-0.4%,2.6e-08,?
CCn1c(SCC(=O)NCCc2ccc(OC)c(OC)c2)nc2c1c(=O)n(C)c(=O)n2C,i,i,-0.1%,4e-09,1%
CCOC(=O)c1[nH]c(C)c(C(=O)NCc2ccc(OC)cc2)c1C,nt,nt,-1.0%,nt,4%
CCCCOC(=O)CCNc1n[nH]c(=O)[nH]c1=O,nt,nt,-1.2%,nt,-4%
Cc1cc(C)n(S(=O)(=O)c2cccc(Cl)c2Cl)n1,nt,nt,3.3%,nt,20%
COC(=O)c1nnn(CC(=O)Nc2cccc(Cl)c2)c1C(=O)OC,i,i,0.1%,1.4e-09,-6%
Cc1cc(C)n2nnnc2c1C#N,i,i,-0.7%,1e-09,2%
CCc1nnc(SCc2cn3c(C)cc(C)nc3n2)n1N,i,i,-0.8%,1.1e-08,-4%
Cc1ccc(S(=O)(=O)O[C@H]2C[C@@H](C(C)(C)C)CC[C@@H]2c2ccccc2)cc1,i,i,-1.1%[11.5 µM],3.6e-09,0%[11.4 µM]
CCc1cccc2c(=O)c(C(=O)NCCN3CCOCC3)c[nH]c12,i,i,-0.2%,1.9e-08,-5%
COc1ccc(NC(=O)N2CCC(c3nc(-c4cccs4)no3)CC2)cc1,i,i,-1.4%,1.6e-08,-5%[11.4 µM]
Cn1ncc2c(Cl)ncnc21,i,i,3.2%[11.5 µM],4.1e-08,-1%[11.4 µM]
CCCN(CCC)S(=O)(=O)c1ccc(C(=O)N2CCC(=O)c3ccccc32)cc1,nt,nt,-1.2%,nt,?
O=C(c1ccco1)N1CCN(C(=O)C2CCCN(S(=O)(=O)Cc3ccccc3)C2)CC1 (centres undefined),i,i,0.6%,5.4e-08,-3%
CC1CCCN(c2nc3c(c(=O)n(C)c(=O)n3C)n2CCSc2nc3ccccc3o2)C1 (centres undefined),i,i,0.6%,1e-09,?
CCCC(=O)N(Cc1cc2cc(C)ccc2[nH]c1=O)c1ccccc1OC,nt,nt,-0.2%,nt,?
COc1ccc(NC(=O)c2ccc3c(=O)n(Cc4ccco4)c(=S)[nH]c3c2)c(OC)c1,i,i,-0.7%,7.8e-09,6%
COC(=O)C(CCCCNC(=O)OCc1ccccc1)NC(=O)CN (centres undefined),i,i,1.8%,4.2e-09,0%
COc1ccc(C(=O)COC(=O)CCN=C2NS(=O)(=O)c3ccccc32)cc1OC,i,i,3.7%,1e-09,4%
